Screening data: PubChem BioAssay, several laboratories
Proteasome disasm: inhibitors of ATP-driven 26S proteasome dissociation, primary screen, biochemical, bead-based flow cytometry, GFP-tagged proteasome. anti-FLAG beads, GFP-proteasome disassembly. inhibition of disassembly, % (concentration not given with the values). actives 0.2% (n = 24,000). AID 751, 2007;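 active means above 40%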;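 further: plate controls were ATP control with full disassembly for no effect and ATP-gamma-S intact proteasomes for full effect; higher percent means more bead fluorescence retained so stronger block of disassembly; stock transfer was 100 nL into about 10 µL; wells with too few beads may also be inconclusive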
VCAM-1 rise: enhancers of VCAM-1 display on endothelial cells, cell-based, plate reader, pooled HUVEC, TNFa stimulus (AID 455); HUVEC TNFa-induced VCAM-1 immunofluorescence, plate reader; numbers were filed only for top-ranked candidate wells; augmentation, % at 5 µM; actives 0.2% (n = 10,000);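 active means a compound raising TNF-alpha-driven VCAM-1 surface staining, with its hit status upheld on visual or statistical review; inactive means the rest, including hits rejected on review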;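 further: 0% = TNFa with vehicle and 100% = strongest image-checked hit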
An asterisk follows results filed as active; i = inactive; . = no result given. An excerpt; the hit share may differ from the screen's.

cpd	structure	Proteasome disasm	VCAM-1 rise
1	CCCCN(C)C(=O)C(Cc1ccccc1)NS(=O)(=O)c1ccc2c(c1)CCC(=O)N2 (stereo not given)	-0.7	.
2	COc1cc(C(=O)NCc2cn3ccsc3n2)cc(OC)c1OC	-0.5	.
3	COCCCn1c(=S)[nH]c2ccc(N3CCOCC3)cc2c1=O	1.0	.
4	CCOC(=O)CC(=O)CSc1nc(-c2cccnc2)ccc1C#N	-1.0	i
5	CCOC(=O)c1sc(NC(=O)CSc2n[nH]c(-c3ccccc3)n2)c(C#N)c1C	0.1	i
6	Cc1ccc(CNC(=O)CN2C(=O)COc3ccc(C)cc32)cc1	-1.3	.
7	COc1ccc(S(=O)(=O)Cc2ccc(C(=O)N3CCN(c4ccccn4)CC3)o2)cc1	-0.7	.
8	Cc1cc2c(=O)n(CC(=O)N3CCN(c4ccc(F)cc4)CC3)cnc2s1	-0.4	.
9	Cn1c(C(=O)N2CCCC(C(=O)NCCCSC3CCCCC3)C2)cc2sccc21 (stereo not given)	1.2	.
10	CCn1c(NC(=O)c2cccc(Cn3cc(Cl)cn3)c2)nc2ccccc21	-0.6	i
11	Cc1nn(C)c(C)c1S(=O)(=O)Nc1ccc2c(c1)OCO2	-1.4	.
12	Cc1ccccc1-c1nc(CS(=O)(=O)CC(=O)Nc2cc(F)ccc2F)c(C)o1	1.7	.
13	Cc1c(Cl)cccc1NC(=O)c1cc(C2CC2)on1	0.6	.
14	COc1ccc(/C(O)=C2/C(=O)C(=O)N(Cc3cccnc3)C2c2ccncc2)cc1F (stereo not given)	0.7	i
15	CN(CC(=O)Nc1ccc2c(c1)OCCO2)S(=O)(=O)c1ccc(Br)s1	2.3	i
16	CC#CCCC(=O)N1C=Cc2ccccc2C1C#N (stereo not given)	1.3	.
17	Cc1nn(S(=O)(=O)N2CCCCC2)c(C)c1Br	-1.1	i
18	Cc1cc(C(=O)NCCN2CCCCC2C)n(-c2ccccc2)n1 (stereo not given)	0.0	i
19	O=C(CSc1nc(O)cc(=O)[nH]1)Nc1ccc2c(c1)CCC2	10.7	.
20	Cc1cccc(-n2nnc(C(=O)NC3CCCc4ccccc43)c2N)c1 (stereo not given)	-1.0	.

Another view of some results above:
#8 Cc1cc2c(=O)n(CC(=O)N3CCN(c4ccc(F)cc4)CC3)cnc2s1
  Proteasome disasm: -0.4
  VCAM-1 rise: .

#9 Cn1c(C(=O)N2CCCC(C(=O)NCCCSC3CCCCC3)C2)cc2sccc21 (stereo not given)
  Proteasome disasm: 1.2
  VCAM-1 rise: .

#10 CCn1c(NC(=O)c2cccc(Cn3cc(Cl)cn3)c2)nc2ccccc21
  Proteasome disasm: -0.6
  VCAM-1 rise: i

Continued:
cpd	structure	Proteasome disasm	VCAM-1 rise
21	O=C(Cn1cnc2c(nnn2Cc2ccc(F)cc2)c1=O)OCc1ccccc1	0.7	.
22	Cc1nn(-c2nc3ccccc3s2)c(C)c1Oc1ccccc1O	-2.5	25.0
23	O=C(CCCCCn1c(SCc2ccncc2)nc2ccccc2c1=O)NCc1ccco1	5.6	i
24	COc1cccc(OC)c1C(=O)N1CCN(S(=O)(=O)c2ccccc2)CC1	1.7	i
25	Cc1nc2ccc(NC(=O)N3CCC(c4ccccc4)C3)cc2nc1C (stereo not given)	3.2	i
26	CCOC(=O)c1c(CN2CCN(c3ccccc3)CC2)oc2ccc(O)cc12	4.0	.
27	CCOC(=O)c1cc2c(=O)n3ccccc3nc2n(Cc2ccco2)c1=NC(=O)c1cccnc1	-1.0	.
28	O=C(CN1CCOc2ccccc21)N1CCCC1	-0.5	.
29	COc1ccc(C(=O)Nc2cc(-c3nn4c(C)nnc4s3)ccc2C)cc1	-1.7	.
30	CC(=O)N1CCCc2cc(S(=O)(=O)CCC(=O)N3CCN(c4cccc(C)c4)C(C)C3)ccc21 (stereo not given)	4.5	.
31	Nc1nc2ccccc2n1/N=C/c1ccc(Br)cc1	1.9	i
32	CCN(CC)C(=O)CSc1nc2cc3c(cc2c(=O)n1Cc1ccc2c(c1)OCO2)OCO3	0.3	.
33	O=C(OCCN(CCOC(=O)c1ccncc1)S(=O)(=O)c1cccs1)c1ccncc1	2.4	i
34	Nc1cc(OC(=O)c2ccccc2Br)nn1S(=O)(=O)c1ccccc1	1.0	.
35	O=C(c1c(Cl)nc2sccn12)N(C(=O)c1c(Cl)nc2sccn12)c1ccc(Cl)cn1	0.9	19.7
36	CCOC(=O)c1sc(NC(=O)CSc2nc3c(cc2C#N)CCC3)c(C#N)c1C	1.0	i
37	Cn1nc(-c2ccc(N3CCCCC3)c(NC(=O)c3ccco3)c2)c2ccccc2c1=O	1.2	i
38	CCCCNC(=O)CC1C(=O)N(Cc2ccccc2)C(C)c2nc3ccccc3n21 (stereo not given)	0.3	.
39	CSCCC(NS(=O)(=O)c1ccc2c(c1)oc(=O)n2C)C(=O)NC1CCC(C)CC1 (stereo not given)	-1.0	.
40	Cc1ccccc1CS(=O)(=O)CCC(=O)NCc1ccccn1	0.8	.

Overlap with the part before: three entries, followed by the next part.
cpd	structure	Proteasome disasm	VCAM-1 rise
38	CCCCNC(=O)CC1C(=O)N(Cc2ccccc2)C(C)c2nc3ccccc3n21 (stereo not given)	0.3	.
39	CSCCC(NS(=O)(=O)c1ccc2c(c1)oc(=O)n2C)C(=O)NC1CCC(C)CC1 (stereo not given)	-1.0	.
40	Cc1ccccc1CS(=O)(=O)CCC(=O)NCc1ccccn1	0.8	.
41	CCCCn1c(SCC(=O)NCc2ccccc2)nc2ccc(N3CCOCC3)cc2c1=O	-1.1	i
42	O=C(OCCn1cncn1)c1cc2ccccc2oc1=O	1.3	.
43	Cc1ccc(NC(=O)COC(=O)c2ccn(C)n2)cc1	1.2	i
44	COC(=O)CSc1nnc(CNC(=O)c2cc(OC)c(OC)c(OC)c2)n1C	-0.8	.
45	Cc1ccc(Cn2c(=N)c(C(=O)NCc3ccco3)cc3c(=O)n4ccccc4nc32)cc1	-1.6	i
46	Cc1ccc(S(=O)(=O)Cn2nnnc2C(C(C)C)N2CCN(C(=O)c3ccco3)CC2)cc1 (stereo not given)	0.7	i
47	COCCN(Cc1cc2cccc(C)c2[nH]c1=O)C(=O)c1ccccc1	2.2	i
48	Cc1cccn2c(=O)c(/C=N/O)c(N3CCCCC3)nc12	1.0	.
49	COc1cc(OC)cc(C(=O)NCCN2CCOCC2)c1	-3.5	i
50	COc1cc2c(cc1OC)C(C)N(C(=O)Cn1ncc3c1-c1ccccc1OC3)CC2 (stereo not given)	0.1	i

Pulled by structure from above (2):
cpd	structure	Proteasome disasm	VCAM-1 rise
47	COCCN(Cc1cc2cccc(C)c2[nH]c1=O)C(=O)c1ccccc1	2.2	i
12	Cc1ccccc1-c1nc(CS(=O)(=O)CC(=O)Nc2cc(F)ccc2F)c(C)o1	1.7	.

More structures.
cpd	structure	Proteasome disasm	VCAM-1 rise
51	CCCC(=O)Nc1ccccc1-c1nnn(CC(=O)Nc2ccc(OCC)cc2)n1	-1.1	i
52	O=C1c2ccccc2C(Nc2ccc(-c3nc4ccccc4[nH]3)cc2)N1Cc1ccco1 (stereo not given)	0.4	i
53	O=C1NC(=O)C(CC(=O)N(c2ccccc2)C2(C(=O)NC3CCCC3)CCCCC2)N1 (stereo not given)	0.0	i
54	c1ccc(CNc2c3c(nc4ncnn24)CCCC3)nc1	-1.3	i
55	CCOC(=O)N1CCC(NC(=O)CSc2cc(=O)n(C)c3ccccc23)CC1	-0.1	.
56	CC1(c2ccc(Cl)cc2)NC(=O)N(CC(=O)NC(=O)NCc2ccco2)C1=O (stereo not given)	0.1	i
57	CC(C)(C)C(=O)Oc1cc(N)n(S(=O)(=O)c2ccccc2)n1	-0.5	i
58	COc1ccc(CCNC(=O)c2nnn(CC(=O)Nc3ccccc3C)c2N)cc1OC	0.6	.
59	O=C(OCCNC(=O)c1cc2ccccc2oc1=O)c1cccnc1	0.0	.
60	COCCNC(=O)CS(=O)Cc1nc(-c2ccccc2C)oc1C (stereo not given)	6.3	.
61	Cc1ccc(NC(=O)CSc2nnc(-c3ccc(S(=O)(=O)N4CCOCC4)cc3)n2C)cc1	0.8	i
62	O=S(=O)(c1ccccc1)n1nc(-c2ccccc2)nc1NCc1ccco1	2.2	.
63	O=C(NCc1cccs1)c1cc2c(s1)CS(=O)(=O)C2	2.2	i
64	CCc1ccccc1N1CC23C=CC(O2)C(C(=O)OC)C3C1=O (stereo not given)	-0.5	.
65	COc1ccc(-c2noc(CCN3C(=O)c4ccccc4C3=O)n2)cc1OC	4.9	i
66	Cc1ccc2cc3cc(C(=O)NCc4ccc5c(c4)OCO5)oc3nc2c1	-0.4	.
67	CC1(C)SC2[C@H](NC(=O)C(NC(=O)N3CCNC3=O)c3ccccc3)C(=O)N2C1C(=O)O (stereo not given in full)	-0.1	i
68	Cn1c(=O)c2c(ncn2CC(O)CO)n(C)c1=O (stereo not given)	-0.4	i
69	CC1=CCC2C(=O)N(c3ccc(C)c(Br)c3)C(=O)C2C1 (stereo not given)	0.4	.
70	COc1cccc(NC(=O)N2CCN(c3cccc(C)c3)C(C)C2)c1 (stereo not given)	-0.3	.
71	Cc1nc2ccc(S(=O)(=O)NC(CC(C)C)C(=O)O)cc2s1 (stereo not given)	-0.4	.
72	CC(c1ccco1)N(Cc1ccco1)C(=O)Nc1ccccc1 (stereo not given)	-0.7	i
73	COc1ccccc1CNC(=O)CCS(=O)(=O)c1ccc2c(c1)CCCN2C(C)=O	-0.6	.
74	CC(NC(=O)NC12CC3CC(CC(C3)C1)C2)C1CCCO1 (stereo not given)	-2.7	i
75	Cc1noc(C)c1S(=O)(=O)N1CCC2(CC1)OCCO2	-1.9	.
76	CCN(CCNC(=O)c1cc(C)nn1-c1ccccc1)c1ccccc1	0.4	.
77	CCn1c(=O)cc(SCC(=O)Nc2ccc3c(c2)OCCO3)c2ccccc21	0.0	.
78	CCn1c(SCc2nc(-c3cccs3)no2)nnc1-c1c[nH]c2ccccc12	1.5	i
79	CCOC(=O)C1C(=O)C=C(c2ccc(OC)cc2)CC1c1ccco1 (stereo not given)	-0.2	.
80	Cc1ccc2nsnc2c1S(=O)(=O)N1CCN(Cc2ccc3c(c2)OCO3)CC1	-1.8	i
81	COC(=O)C1(C)Nc2ccccc2C(=O)N1c1ccccc1OC (stereo not given)	1.7	.
82	CCN(C(=O)COc1cc(=O)n(CC)c2ccccc12)c1cc(Cl)ccc1OC	1.1	.
83	COC(=O)c1c(C(=O)OC)n(CCCN)c2ccc(C)cc12	11.8	i
84	COc1ccc(NC(=O)[C@H](CCS(C)(=O)=O)N2Cc3ccccc3C2=O)c(OC)c1	-0.1	.
85	Cc1ccc(-n2nc3c(c2NC(=O)c2ccc(Br)o2)CSC3)c(C)c1	0.0	.
86	Cc1cccc(N2CCN(C(=O)C3CCCN(S(=O)(=O)c4cccc5cccnc45)C3)CC2)c1C (stereo not given)	-0.7	.
87	COc1ccc2c3c(c(=O)oc2c1OCC(N)=O)CCCC3	3.5	i
88	CCOCCCNC(=O)c1cn(C)c(=O)c2cc(OC)c(OC)cc12	-0.6	.
89	CCn1cc(C(=O)NCc2ccc3c(c2)OCO3)c2cc(OC)c(OC)cc2c1=O	-0.2	.
90	COc1ccc2nc(Nc3nc(C)c(C(C)=O)s3)sc2c1	2.9	.
91	O=C(Nc1nccs1)C1CCCN(S(=O)(=O)c2cccnc2)C1 (stereo not given)	-0.1	.
92	O=C1CCC(c2ccccc2)N1C(=O)c1cccnc1 (stereo not given)	-0.5	i
93	CCCS(=O)(=O)N1CCC(C(=O)NCC2CCCO2)CC1 (stereo not given)	1.1	.
94	CCCCCn1c(CNC(=O)COC)nc2ccccc21	-0.6	.
95	CC(C(=O)Nc1ccccn1)N1C(=O)C2C3C=CC(C3)C2C1=O (stereo not given)	-1.4	.
96	CCCNC(=O)NC1C(NC(=O)NCCC)N(C)C(=O)N1C (stereo not given)	-1.2	i
97	CC(C)CN(CC(C)C)C(=O)CS(=O)(=O)Cc1ccccc1	1.3	i
98	CCC(C)(C(=O)NC1CCCCC1)N(CC1CCCO1)C(=O)c1ccccn1 (stereo not given)	-0.5	i
99	Cc1cc(NC(=O)c2noc3c2CCCCC3)nn1Cc1ccc(Cl)cc1	0.4	.
100	CCOC(=O)c1sc2nc(NC(=O)C(C)(C)C)sc2c1C	0.3	i

(listing goes on)
cpd	structure	Proteasome disasm	VCAM-1 rise
101	CCOc1ccc(Oc2nc(NCC(C)C)nc(OC)n2)nn1	0.1	.
102	O=C(CSc1nnnn1C1CCCC1)NCc1ccc2c(c1)OCO2	0.3	i
103	Cc1cccc(N(CC(=O)N2CCCC2)S(=O)(=O)c2ccccc2)c1C	-2.9	i
104	COCC(=O)Nc1sc2c(c1C(=O)OC)C(C(=O)OC)CC2 (stereo not given)	-0.6	i
105	COc1cc(NC(=O)c2cc(CC(C)C)on2)c(OC)cc1Cl	0.1	i
106	Cc1ccc(C)c(-c2nc3ccc(N)cc3[nH]2)c1	9.5	i
107	CCOCCCNC(=O)C1CCC(=O)N1CCc1ccccc1 (stereo not given)	-0.9	i
108	COC(=O)c1cc2sccc2n1CC(=O)Nc1cc(OC)cc(OC)c1	-0.2	.
109	CCOC(=O)NCCc1c(C)nc2c(c(C)nn2C(C)(C)C)c1C	1.7	.
110	CCOc1ccccc1NS(=O)(=O)c1ccc(OC)c(OC)c1	1.8	.
111	O=C(NCCCN1CCN(c2ccccc2F)CC1)C1CCC(=O)N1C1CCCCC1 (stereo not given)	0.4	.
112	Cc1cc(NC(=O)Cn2cnc3c2c(=O)n(C)c(=O)n3C)n(-c2ccccc2)n1	-1.0	i
113	CC1(C)CC(=O)C2=C(C1)N(Cc1ccco1)C(=O)C2(NC(=O)C1CCCCC1)C(F)(F)F (stereo not given)	2.1	i
